# Vaccinia inh: blocks a specific stage of Vaccinia orthopoxvirus infection, primary screen, cell-based, single point. Vaccinia-infected cells, mCherry/Venus stage reporter fluorescence; stronger effect = lower value; some inactives read as strong as hits. activity change (mCherry), % (concentration not given with the values). actives 0.01% (n = 89,000);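 active means mCherry past -33% and 40 or more points under the early reporter, replicates agreeing; inconclusive means past -33% without that gap or agreement; tested in A549 cells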;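 further: scaled between vehicle wells and reference inhibitor wells; 23 nL library stock went into each well; one replicate is shown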
# Vaccinia inh Venus: recorded beside Vaccinia inh, whose call it bears; activity change (Venus), %; measured here: Venus reporter, other viral stage;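 negative = less Venus signal; first of two replicates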
# * hit, by the source's call; ? = inconclusive; / = no result given. Only part of the results is shown; the hit share may differ from the screen's.
SMILES,Vaccinia inh,Vaccinia inh Venus
O=C(Nc1cccc(Cl)c1)N1C[C@H]2[C@@H](c3ccccc31)[C@@H](CO)N2CC1CCOCC1,-9.8,-4.7
CN1C(=O)c2cc(NC(=O)C3CC3)ccc2OC[C@H]2O[C@@H](CC(=O)NCc3ccccc3F)CC[C@@H]21,14.2,8.0
C[C@@H]1CN([C@H](C)CO)C(=O)c2cc(NC(=O)Nc3ccc4c(c3)OCO4)ccc2O[C@@H]1CN(C)Cc1ccc(C(=O)Nc2ccccc2N)cc1,18.9,7.5
CC(=O)n1cc([C@H]2C=C(C(=O)Nc3ccccc3)O[C@@H](OCCCCO)C2)c2ccccc21,-5.4,5.7
C[C@H](CO)N1C[C@H](C)[C@H](CN(C)Cc2ccc(C(F)(F)F)cc2)Oc2c(NC(=O)C3CCOCC3)cccc2C1=O,9.9,8.5
C[C@@H]1CN([C@H](C)CO)C(=O)c2cc(NC(=O)Nc3ccc(C(F)(F)F)cc3)ccc2O[C@@H]1CN(C)Cc1ccc(-c2ccccc2)cc1,8.7,7.5
COc1ccc(S(=O)(=O)Nc2ccc3c(c2)C(=O)N([C@H](C)CO)C[C@H](C)[C@@H](CN(C)C(=O)CCC(F)(F)F)OCCCC[C@@H](C)O3)cc1,10.2,7.0
O=C(Nc1ccc2c(c1)[C@@H]1C[C@@H](CC(=O)N3CCCCC3)O[C@@H](CO)[C@@H]1O2)Nc1ccccc1F,?,/
COc1ccc(NC(=O)N[C@H]2CC[C@H](CCNC(=O)Cc3ccncc3)O[C@@H]2CO)cc1,11.0,4.7
C[C@@H]1CCCCO[C@@H](CN(C)S(=O)(=O)c2ccccc2)[C@H](C)CN([C@H](C)CO)C(=O)c2cc(NS(=O)(=O)c3cn(C)cn3)ccc2O1,4.3,-2.0
CCNC(=O)C[C@@H]1CC[C@@H]2[C@H](COC[C@@H](O)CN2C(=O)c2cccnc2)O1,43.8,21.9
C[C@@H]1CN([C@H](C)CO)C(=O)c2cc(NC(=O)NC3CCCCC3)ccc2O[C@@H](C)CCCCO[C@H]1CN(C)C(=O)CCC(F)(F)F,-20.5,-12.6
CCNC(=O)C[C@@H]1CC[C@@H]2[C@H](COc3ccc(NC(=O)Nc4cccc(F)c4)cc3C(=O)N2C)O1,10.7,7.4
O=C(C[C@H]1C[C@H]2c3cc(NC(=O)NC4CCCC4)ccc3O[C@H]2[C@@H](CO)O1)NCC(F)(F)F,-6.6,-1.5
Cc1ccc(S(=O)(=O)N(C)C[C@@H]2Oc3ccc(NC(=O)CCC(F)(F)F)cc3CC(=O)N([C@@H](C)CO)C[C@H]2C)cc1,-19.1,-26.6

# 2 records drawn at random from those above, as already listed:
SMILES,Vaccinia inh,Vaccinia inh Venus
COc1ccc(NC(=O)N[C@H]2CC[C@H](CCNC(=O)Cc3ccncc3)O[C@@H]2CO)cc1,11.0,4.7
C[C@@H]1CN([C@H](C)CO)C(=O)c2cc(NC(=O)NC3CCCCC3)ccc2O[C@@H](C)CCCCO[C@H]1CN(C)C(=O)CCC(F)(F)F,-20.5,-12.6

# The listing continues:
SMILES,Vaccinia inh,Vaccinia inh Venus
O=C(C1CC1)N1CCCCN2[C@@H](CO)[C@H](c3ccc(C#CC4CC4)cc3)[C@@H]2C1,-5.0,-1.6
COCCNC(=O)c1cc2c(c(-c3cccc(-c4ccc(C#N)cc4)c3)n1)[C@@H](CCO)N(C(=O)CC1CC1)C2,-4.0,-8.5
CN1C(=O)c2cc(NC(=O)c3ccc4c(c3)OCO4)ccc2OC[C@@H]2O[C@@H](CC(=O)O)CC[C@@H]21,14.1,11.0
Cc1noc(C)c1S(=O)(=O)Nc1ccc2c(c1)C(=O)N([C@@H](C)CO)C[C@H](C)[C@H](CN(C)Cc1ccccc1)OCCCC[C@H](C)O2,-20.5,-13.3
COCC(=O)N1CC(=O)N2[C@H](CO)[C@H](c3ccc(C#Cc4cccnc4)cc3)[C@@H]2C1,5.4,5.2
CO[C@H]1CN(C)C(=O)c2ccc(NC(=O)c3cnccn3)cc2OC[C@@H](C)N(C(=O)C2CC2)C[C@H]1C,-1.6,1.7
O=C(C[C@H]1C=C[C@H](NS(=O)(=O)c2ccccc2F)[C@@H](CO)O1)NCCCN1CCOCC1,-1.5,-2.7
CCCC(=O)Nc1ccc2c(c1)OC[C@@H](C)N(C(=O)CC)C[C@H](C)[C@H](OC)CN(C)C2=O,-4.7,0.8
COc1ccc(NC(=O)Nc2cccc3c2O[C@H](CN(C)C(=O)Nc2ccc(OC)cc2)[C@@H](C)CN([C@H](C)CO)C3=O)cc1,5.1,8.5
COc1ccc2c3c([nH]c2c1)[C@H](CO)N(Cc1cccc(F)c1)CC31CCN(Cc2ccccn2)CC1,-12.1,-1.9
CCC(=O)N1C[C@@H](C)[C@H](OC)CN(C)C(=O)c2ccc(NC(=O)COC)cc2OC[C@@H]1C,2.8,4.9
C[C@@H]1CN([C@@H](C)CO)C(=O)Cc2cc(NC(=O)NC3CCCCC3)ccc2O[C@H]1CN(C)S(=O)(=O)c1cn(C)cn1,4.6,6.2
CC(C)NC(=O)Nc1ccc2c(c1)C(=O)N([C@@H](C)CO)C[C@H](C)[C@@H](CN(C)C(=O)Nc1ccc(C(F)(F)F)cc1)O2,2.9,1.6
C[C@@H]1CN([C@H](C)CO)C(=O)c2cccc(NC(=O)NC3CCCCC3)c2O[C@@H]1CN(C)C(=O)Nc1cccc2ccccc12,-6.5,-6.6
CCN(C[C@H]1N[C@H](CO)[C@H]1c1ccc(-c2cccc(C#N)c2)cc1)C(=O)COC,4.9,3.8

# Brought forward from above: 2 compounds, then new ones.
SMILES,Vaccinia inh,Vaccinia inh Venus
C[C@@H]1CN([C@H](C)CO)C(=O)c2cccc(NC(=O)NC3CCCCC3)c2O[C@@H]1CN(C)C(=O)Nc1cccc2ccccc12,-6.5,-6.6
CCN(C[C@H]1N[C@H](CO)[C@H]1c1ccc(-c2cccc(C#N)c2)cc1)C(=O)COC,4.9,3.8
COC(=O)C[C@@H]1CC[C@@H]2[C@H](COc3ccc(NC(=O)c4ccc(F)cc4)cc3C(=O)N2C)O1,-7.5,-3.8
C[C@H]1CN([C@@H](C)CO)C(=O)c2cc(NC(=O)Cc3cn(C)c4ccccc34)ccc2O[C@@H]1CN(C)C(=O)NC1CCCCC1,3.6,12.1
C[C@H](CO)N1C[C@H](C)[C@@H](CN(C)C(=O)Nc2cccc3ccccc23)Oc2ccc(NS(=O)(=O)c3cn(C)cn3)cc2C1=O,18.1,13.2
CO[C@H]1CN(C)C(=O)c2cc(NC(=O)NC(C)C)ccc2OC[C@@H](C)N(Cc2ccccn2)C[C@@H]1C,6.1,7.3
O=C(C[C@@H]1CC[C@@H](NC(=O)Nc2cccc(F)c2)[C@H](CO)O1)NCC1CCCCC1,-8.7,-4.0
C[C@@H]1CN([C@H](C)CO)C(=O)c2cccc(NC(=O)c3ccc(-c4nccs4)cc3)c2O[C@@H]1CN(C)S(=O)(=O)c1ccc(Cl)cc1,11.4,11.8
O=C(Cc1cccnc1)N[C@H]1CC[C@H](CCn2cc(-c3ccccc3F)nn2)O[C@H]1CO,6.9,2.5
CCCN1[C@@H]2Cn3c(ccc(-c4ccccc4OC)c3=O)[C@H]1[C@@H](C(=O)N1CCOCC1)[C@@H]2CO,17.6,8.8
COCCNC(=O)C[C@H]1C[C@H]2c3cc(NC(=O)CN(C)C)ccc3O[C@H]2[C@@H](CO)O1,0.9,8.3
COc1ccc(S(=O)(=O)Nc2ccc3c(c2)C(=O)N([C@@H](C)CO)C[C@H](C)[C@H](CN(C)S(C)(=O)=O)OCCCC[C@@H](C)O3)cc1,6.3,-3.0
COCC(=O)Nc1ccc2c(c1)OC[C@H](C)N(Cc1cc(F)ccc1F)C[C@@H](C)[C@@H](OC)CN(C)C2=O,-22.8,-19.8
COc1ccc(CN(C)C[C@@H]2Oc3ccc(NC(=O)Cc4ccccc4)cc3C(=O)N([C@H](C)CO)C[C@@H]2C)cc1,-4.6,-5.0
CO[C@@H]1CN(C)C(=O)c2cc(NC(C)=O)ccc2OC[C@H](C)N(C(=O)Cc2ccccn2)C[C@@H]1C,8.9,2.7
CC(C)NC(=O)N(C)C[C@@H]1OCCCC[C@@H](C)Oc2ccc(NC(=O)c3ccccc3)cc2C(=O)N([C@@H](C)CO)C[C@H]1C,18.8,2.5
CCC(=O)Nc1ccc2c(c1)C(=O)N(C)[C@H]1CC[C@H](CC(=O)N[C@@H](C)c3ccccc3)O[C@H]1CO2,3.6,2.0
Cc1ccc(-c2cnc3c(c2)C(=O)N([C@@H](C)CO)C[C@@H](C)[C@@H](CN(C)C(=O)c2cccc(F)c2)O3)cc1,?,/
Cc1ccc(-c2ccccc2[C@@H]2[C@H](C#N)N(C(=O)Cc3cccnc3)[C@H]2CO)cc1,-27.4,-19.7
CCCC#Cc1cnc2c(c1)C(=O)N([C@@H](C)CO)C[C@@H](C)[C@H](CN(C)S(C)(=O)=O)O2,11.5,8.9
COc1ccc(S(=O)(=O)N(C)C[C@H]2Oc3c(NS(=O)(=O)c4ccccc4)cccc3C(=O)N([C@@H](C)CO)C[C@H]2C)cc1,-0.2,-7.2
C[C@H](NC(=O)C[C@@H]1CC[C@H](NC(=O)C2CCOCC2)[C@H](CO)O1)c1ccccc1,10.5,19.5
C[C@H]1CN([C@@H](C)CO)C(=O)Cc2cc(NC(=O)Cc3cn(C)c4ccccc34)ccc2O[C@@H]1CN(C)Cc1ccccc1,-15.2,-8.1
C[C@H](CO)N1C[C@H](C)[C@H](CN(C)Cc2ccc3c(c2)OCO3)Oc2c(NC(=O)C3CC3)cccc2C1=O,8.9,11.3
Cc1ccc(-c2ccc([C@@H]3[C@H]4CN(C(=O)c5ccncc5)CCCCN4[C@H]3CO)cc2)cc1,?,/
O=C(C[C@H]1C=C[C@H](NC(=O)Nc2ccccc2F)[C@@H](CO)O1)NCc1ccc(F)cc1,14.7,9.0
O=C(C[C@@H]1CC[C@@H]2[C@H](COC[C@@H](O)CN2C(=O)Nc2cc(Cl)cc(Cl)c2)O1)N1CCCCC1,8.9,5.8
C[C@H]1CN([C@@H](C)CO)C(=O)c2cccc(NC(=O)C3CCCCC3)c2O[C@H]1CN(C)CC1CC1,7.7,7.5
C/C=C/c1ccc([C@H]2[C@@H](CNS(C)(=O)=O)N(CC3CC3)[C@H]2CO)cc1,-3.3,4.8
COc1ccc(NC(=O)N(C)C[C@@H]2OCCCC[C@H](C)Oc3ccc(NC(=O)Nc4ccc(C(F)(F)F)cc4)cc3C(=O)N([C@@H](C)CO)C[C@@H]2C)cc1,-17.4,0.3
CO[C@H]1CN(C)C(=O)c2ccc(NS(=O)(=O)c3ccc(Cl)cc3)cc2OC[C@H](C)N(C)C[C@H]1C,3.5,10.6
C[C@H](CO)N1C[C@H](C)[C@@H](CN(C)C(=O)Nc2cccc3ccccc23)Oc2c(NC(=O)Nc3ccc(C(F)(F)F)cc3)cccc2C1=O,?,/
COc1ccccc1C#Cc1ccc([C@H]2[C@H]3CN(C(=O)C4CCCC4)CCCCN3[C@H]2CO)cc1,?,/
C[C@@H]1CN([C@H](C)CO)C(=O)c2cc(C3=CCCC3)cnc2O[C@@H]1CN(C)C(=O)c1ccc(F)cc1,19.7,24.1
COc1cccc(C#Cc2ccc3c(c2)O[C@@H](CN(C)C(=O)CN2CCOCC2)[C@@H](C)CN([C@@H](C)CO)S3(=O)=O)c1,?,/
CCC(=O)Nc1ccc2c(c1)C(=O)N(C)C[C@@H](OC)[C@@H](C)CN(Cc1ccccc1OC)[C@H](C)CO2,-13.4,-8.5
C[C@@H]1CN([C@H](C)CO)C(=O)Cc2cc(NS(=O)(=O)c3cn(C)cn3)ccc2O[C@H]1CN(C)C(=O)Nc1cccc2ccccc12,7.7,13.5
O=C(O)[C@H]1[C@H](CO)[C@H]2Cn3c(ccc(/C=C/c4ccccc4)c3=O)[C@H]2N1Cc1ccc2c(c1)OCO2,2.2,-0.6
CCCC(=O)N1CC2(C1)CN(C(=O)CN1CCOCC1)[C@H](CO)c1c2c2ccc(OC)cc2n1C,3.7,-4.5
C[C@@H]1CN([C@@H](C)CO)S(=O)(=O)c2ccc(C3=CCCCC3)cc2O[C@H]1CN(C)C(=O)C1CCCCC1,?,/
COCC(=O)N(C)C[C@H]1Oc2cc(C#C[C@@H](C)O)ccc2S(=O)(=O)N([C@@H](C)CO)C[C@H]1C,0.0,-4.0
C[C@H](CO)N1C[C@H](C)[C@@H](CN(C)C(=O)Nc2ccc3c(c2)OCO3)Oc2c(NS(=O)(=O)c3ccc(F)cc3)cccc2C1=O,13.5,14.7
COc1ccc(CN(C)C[C@@H]2Oc3c(NC(=O)Nc4c(C)noc4C)cccc3C(=O)N([C@@H](C)CO)C[C@H]2C)cc1,8.4,1.3
CC(C)NC(=O)Nc1ccc2c(c1)CC(=O)N([C@H](C)CO)C[C@@H](C)[C@@H](CN(C)C(=O)Nc1ccc(F)cc1)O2,5.8,0.3
CO[C@@H]1CN(C)C(=O)c2ccc(NS(=O)(=O)c3ccccc3C)cc2OC[C@H](C)N(C)C[C@H]1C,-10.6,-5.5
C[C@H](CO)N1C[C@H](C)[C@H](CN(C)C(=O)Cc2cccnc2)Oc2ncc(C#CCc3ccccc3)cc2C1=O,6.8,11.0
CCCC(=O)Nc1ccc2c(c1)C(=O)N(C)C[C@H](OC)[C@@H](C)CN(C(C)=O)[C@H](C)CO2,17.0,16.2
C[C@H]1CN([C@@H](C)CO)C(=O)c2cccc(NC(=O)c3nc4ccccc4s3)c2O[C@@H]1CN(C)S(=O)(=O)c1cn(C)cn1,15.9,13.2
C[C@H](CO)N1C[C@H](C)[C@H](CN(C)CC2CC2)Oc2ccc(NC(=O)C3CCCCC3)cc2CC1=O,15.3,10.9
CC(=O)N1[C@@H](CO)[C@H](c2ccccc2)C12CN(C(=O)c1ccc3c(c1)OCO3)C2,0.3,-4.7

# Complete entries from above.
# CO[C@H]1CN(C)C(=O)c2ccc(NS(=O)(=O)c3ccc(Cl)cc3)cc2OC[C@H](C)N(C)C[C@H]1C is listed with Vaccinia inh: 3.5; Vaccinia inh Venus: 10.6
# CCCC(=O)Nc1ccc2c(c1)OC[C@@H](C)N(C(=O)CC)C[C@H](C)[C@H](OC)CN(C)C2=O is listed with Vaccinia inh: -4.7; Vaccinia inh Venus: 0.8
